NPYLR7 agonist = agonists of mosquito NPYLR7 receptor, primary screen, cell-based, Aedes aegypti, calcium fluorescence, mosquito biting behavior; Aedes aegypti neuropeptide Y-like receptor 7 (NPYLR7); activation, % at 10 µM; hit rate 0.15% among 270,000; HEK293T NPYLR7/Galpha15, GCaMP6s calcium fluorescence; in the data active means activation above about 40%;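 further: 0% = vehicle and 100% = reference agonist at the receptor; some compounds past the cut are filed as inactive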
NPYLR7 agonist max-min = further read-out of NPYLR7 agonist, marked with its call; activation, %; measured here: Max-Min RFU normalised activation; some inactives read as strong as hits;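 span of the calcium signal over five minutes; 0% = vehicle and 100% = native peptide agonist; compound fluorescence can raise it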
Numbers without * were called inactive.

SMILES	NPYLR7 agonist	NPYLR7 agonist max-min
C#CCn1c(=NC(=O)c2ccc(S(C)(=O)=O)cc2)sc2cc(S(C)(=O)=O)ccc21	9	6
CN(C)C(CNC(=O)CNC(=O)c1ccc(Br)cc1)c1ccccc1 (stereo not given)	2	2
Cc1cc2ncn(CC(=O)NC3CCCC3)c2cc1C	-4	-3
COc1cc(OC)cc(C(=O)N2CCCC2C(=O)Nc2nnc(-c3ccc(Br)cc3)s2)c1 (stereo not given)	-2	-1
CCOC(=O)N1CCN(C(c2ccc(Cl)cc2)C2Sc3nc(CC)nn3C2=O)CC1 (stereo not given)	-5	-11
CCCC(=O)OCC(O)CN(Cc1c(C)nn(-c2ccccc2)c1Oc1cccc(C)c1)CC1CC1 (stereo not given)	10	8
O=C(CSc1nnc(-c2ccccc2)n1-c1ccccc1)N/N=C\c1cccc(Br)c1	-5	-13
CC1=NN(CC(C)C)c2nc3c(c(=O)n(CC(C)C)c(=O)n3C)n2C1	1	9
O=C(c1csc(CSc2nnc(-c3cccnc3)n2-c2cccc(Cl)c2)n1)N1CCN(C/C=C/c2ccccc2)CC1	11	4
CCS(=O)(=O)c1cccc(C(=O)Nc2nc3c(Cl)ccc(Cl)c3s2)c1	13	6
COc1ccc(N2CCN(C(=O)c3cc(-c4ccc(C)o4)nn3-c3ccc(F)cc3)CC2)cc1	23	23
O=C(CN(CC1CCCO1)C(=O)COc1ccc(Cl)cc1)N(Cc1ccc2c(c1)OCO2)Cc1ccco1 (stereo not given)	-4	-3
Cc1ccc(-c2nccn2CCCOc2cccnc2)o1	3	0
CN1CCN(S(=O)(=O)c2ccc(C(=O)NNC(=O)C3CCCCC3)cc2)CC1	2	8
C/C=C/CCc1cc(O)c2c(c1)OC(C)C2CO (stereo not given)	-8	-16
COCc1cc(C(=O)N2CC(C)C(N3CCOCC3)C2)ccc1F (stereo not given)	0	0
c1ccc(Cc2nc(C3CCOC3)n[nH]2)cc1 (stereo not given)	-1	-1
CC1(C)C(c2ccccc2)=[N+]([O-])C(c2ccccc2O)N1O (stereo not given)	-11	-12
COC(=O)c1cc(C2CC2)nc2c1c(-c1ccc(F)cc1)nn2C1CCS(=O)(=O)C1 (stereo not given)	18	9
COc1cccc2cc(C(=O)Nc3ccccc3OC(F)F)c(=O)oc12	-1	3
CCCCCN(CC(=O)Nc1cc(C(C)(C)C)nn1-c1ccc(C)cc1C)C(=O)Nc1ccc([N+](=O)[O-])cc1	6	17
C=CCN(Cc1nccn1Cc1c(C)cc(C)cc1C)C(=O)c1ccc(Cl)cc1	4	7
CCc1cc(CN2CCC=C(CNC(C)=O)C2)on1	10	6
CCc1ccc(C(NC(=O)C2CCCN2C(C)=O)C(C)(C)C)o1 (stereo not given)	-1	-3
Cc1ccc2oc(-c3ccccc3OCC(=O)O)nc2c1	11	4
Cc1ccc(N2CC(C)Cn3c2nc2c3c(=O)[nH]c(=O)n2C)cc1 (stereo not given)	11	5
Cc1ccc2nc3c(cc(C#N)c(=O)n3-c3nccs3)c(=O)n2c1	11	7
Cc1[nH]c2c(C(=O)NC(C)c3cnn(-c4ccccc4)c3C)cccc2c1C (stereo not given)	16	4
CC(CC(F)(F)F)C(=O)NC1CCc2[nH]c3c(Cl)cccc3c2C1 (stereo not given)	14	12
Cn1cnnc1C1CCCN(Cc2cc3n(n2)CCCNC3)C1 (stereo not given)	10	2
N#Cc1ccsc1NC(=O)c1ccc(OCC2CCCO2)cc1 (stereo not given)	-3	-4
O=C1CSc2ccc(C(=O)O)cc2N1	1	3
CN(CCc1cn[nH]c1)Cc1nnc(CC2CCNCC2)n1C	2	-2
Cc1cc(=O)[nH]c(SCc2ccc(C(=O)Nc3ccccc3)cc2)c1C#N	3	-1
COc1cccc(NC(=O)c2cn(C)c3c(=O)n(-c4ccccc4)c(=O)[nH]c23)c1	1	1
Oc1cc2c(cc1CN1CCCC(C(F)(F)F)C1)OCO2 (stereo not given)	0	0
Cc1ccc(C)c(S(=O)(=O)n2c([N+](=O)[O-])cnc2C)c1	24	21
Fc1ccccc1CSc1nnc2c(n1)OC(c1cccnc1)Nc1ccccc1-2 (stereo not given)	0	-4
CNC(=O)[C@@H]1C[C@@H]2O[C@H]1[C@H]1CN(C(=O)COc3ccccc3)C[C@H]1[C@H]2O	10	21
Cc1cc(=O)cc(C(F)(F)F)o1	7	13
Cc1cccc(N2CCN(c3nc(-c4ccc(Oc5ccccc5)cc4)nc4ccccc34)CC2C)c1 (stereo not given)	0	-3
O=C(c1c(F)c(F)c(F)c(F)c1F)N1CCC(c2nc(-c3ccccc3F)no2)CC1	5	3
CCOC(=O)[C@H]1[C@@H](O)C(=O)N(C)C12CCN(S(=O)(=O)CC)CC2	-1	11
CC(C)c1ccccc1OC1CC2CCC(C1)N2C(=O)c1ccc(CSc2cccc(F)c2)cc1 (stereo not given)	2	-2
c1nc2nc3c(c(N4CC[C@H]5CCCC[C@@H]5C4)n2n1)CCC3	9	0
Cc1ccccc1-c1cc(C(=O)NC(C)c2ccccc2)c2ccccc2n1 (stereo not given)	18	10
O=C(Nc1ccc(F)cc1)c1cc2n(n1)CCN(Cc1ccccc1Cl)C2=O	16	21
Cc1cc(C)cc(CN2CCN(Cc3cnn(C)c3)CC2=O)c1	10	3
O=C(O)CSc1nc2c(c(=O)[nH]1)CCCC2	28	16
CC(C)N(CC(=O)N(Cc1cccn1Cc1ccccc1Cl)C1CCCCC1)C(=O)c1cccc(C(F)(F)F)c1	-6	-1
CCOC(=O)c1[nH]c(COC(=O)C2=COCCO2)c(C(=O)OCC)c1C	3	7
O=C(NCCc1nnc2ccc(SCc3ccccc3Cl)nn12)c1ccccc1	16	7
Cc1cc(Oc2cnccn2)ccc1N	9	4
C=C(Br)Cn1c(C=Cc2ccccc2)nc2ccccc21	7	5
CCOc1ccc(OCc2ccc(C(=O)NNC(=O)C3CC4CCC3C4)cc2)cc1 (stereo not given)	8	13
COC1CCN(C(=O)Cc2ccc(F)cc2)CC(=O)N(C)c2ccccc21 (stereo not given)	-4	3
CSCCCNc1nccc(-c2cnn(-c3ccccc3)c2)n1	0	-1
COc1ccc(CCNc2cc(C)nn3cnnc23)cc1	-2	19
CCCCCCCCCCOc1ccc(C2=N/C(=C\C=C\c3ccccc3)C(=O)O2)cc1	-4	-9
O=C1c2ccccc2C(=O)C1c1cc2ccccc2cn1	-3	-5
Remaining list, next part
SMILES	NPYLR7 agonist	NPYLR7 agonist max-min
CN(C)C(=O)c1nnc2n1CCN(C(=O)c1cccn1C)C2	9	4
Cc1noc(C)c1NC(=O)N(C1CC1)C(C)c1ccc(Cl)cc1 (stereo not given)	0	-3
O=C1CN(C(=S)Nc2c(F)c(F)cc(F)c2F)CC2c3cc(F)ccc3CCN12 (stereo not given)	0	17
Cc1ccc(/C=C/C2=Cc3c(sc(N)c3C#N)C(C)(C)C2)o1	5	5
CC1=CCC=CC1C(=O)N1CCOC(COCc2ccccc2F)C1 (stereo not given)	7	22
CN1CCN(C)C2(CCN(C(=O)c3cn[nH]c3-c3cccs3)CC2)C1	1	-8
Cc1noc(-c2ccncc2)c1C(=O)N[C@@H]1CCCc2ccccc21	2	9
OCCN(CCO)CC(O)COc1ccc2ccccc2c1 (stereo not given)	-6	2
O=C(NCc1ccc(-c2ncc(-c3ccc(N4CCOCC4)cc3)[nH]2)cc1)c1ccc(F)c(C(F)(F)F)c1	-7	-10
N#Cc1ccsc1NC(=O)CSC1CCCC1	11	11
CCCCOC(=O)c1ccc(N=CC(C#N)c2nc(C3CC3)cs2)cc1 (stereo not given)	20	16
NCC(=O)Nc1ccccc1-c1ccc(OC(F)(F)F)cc1	5	3
Cc1c(/C=C/C(=O)Nc2cnn(Cc3c(Cl)cccc3Cl)c2)cnn1C	5	1
Cc1cn2c3c(=O)n(Cc4cccc(Cl)c4)c(=O)n(C)c3nc2n1CCN1CCOCC1	-9	-9
O=C(CCC1CCCCC1)NNC(=O)c1ccccc1O	0	-3

The final 2 entries of the part before open the next one.
SMILES	NPYLR7 agonist	NPYLR7 agonist max-min
Cc1cn2c3c(=O)n(Cc4cccc(Cl)c4)c(=O)n(C)c3nc2n1CCN1CCOCC1	-9	-9
O=C(CCC1CCCCC1)NNC(=O)c1ccccc1O	0	-3
CNC(=O)c1ccc(CN(C)C(=O)CCNC(=O)c2ccccc2Cl)cc1	5	3
COc1ccc(CCNC(=O)c2cc(-c3ccccc3)nc3cc(C(C)(C)C)nn23)cc1OC	-6	-2
CC(=O)OC(C(=O)N1CCN(Cc2cc(=O)c(OCc3ccc(C(F)(F)F)cc3)co2)CC1)c1ccccc1 (stereo not given)	19	11
COc1ccc(O)cc1	0	6
O=C(NCCc1ccccc1)c1ccc(OC2CCN(C(=O)c3cnsn3)CC2)cc1	-2	-9
c1ccc(C(Cn2cncn2)NCc2cccs2)cc1 (stereo not given)	-1	72
C=CCN(Cc1nccn1Cc1ccc(Cl)c(Cl)c1)S(=O)(=O)c1ccc(C)cc1	6	11
Cc1cc(OCC(=O)NCc2ccc(F)cc2)nnc1C	7	1
O=C1C[C@H]2CC[C@@H](CN1)N2C(=O)C1CCN(C(=O)Cc2ccccc2)CC1	12	16
COCC(C)NC(=O)c1cncn1-c1cccc(-c2cccc3c2sc2ccccc23)c1 (stereo not given)	3	0
CCc1nc2c(OCC3CCCCC3)cccn2c1N(C=O)Cc1ccc(OC)cc1	-1	-2
O=C(O)C1(O)CCN(c2cnc3ccccc3n2)CC1	4	1
COc1ccc(NC2(C(=O)N3CCOC(CN)C3)CCCC2)cc1 (stereo not given)	-2	26
FC(F)(F)c1ccc(C=NNC2=Nc3cccc4cccc2c34)cc1	3	1
C=C(C)COc1c(CN2CCCCC2c2nc(C)no2)cccc1OC (stereo not given)	-4	-5
Cc1nccn1-c1c2c(c(C#N)c3nc4ccccc4n13)CCC2	5	1
Cc1cccc2c(-c3ncccc3C(N)=O)c[nH]c12	11	11
CC(=O)Nc1ccc(O)c(C(=O)N(C)Cc2cc(Br)cs2)c1	4	0
CCc1ccccc1NC(=O)Cn1c(=O)n(CC2CCC(C(=O)NC)CC2)c(=O)c2sccc21 (stereo not given)	5	3
CCCc1c(C)nn(-c2ccc(C(=O)N[C@@H](C)[C@H](O)c3ccccc3)cc2)c1C	1	-1
O=C(Cn1ncn2nc(-c3ccc(F)cc3)cc2c1=O)Nc1ccccc1F	-10	-20
COC(=O)c1ccc(=O)n(CC(=O)Nc2ccc(OC)cc2OC)c1	5	6
COc1ccc(Cc2nn[nH]n2)cc1OC	-10	-16
CCCCOC(=O)N1C[C@H](C(=O)NC)[C@H]2c3ccccc3N(CCO)C(=O)[C@]21C	0	10
COC(=O)CCN(C(=O)c1cnn(-c2ccccc2)c1C)C(C)C	0	14
CN(CC(=O)NC1CC1)C(=O)CSc1nc2cc(Cl)ccc2n1Cc1ccccc1	3	5
CCOC(=O)c1nn(-c2ccccc2)c(=O)cc1OS(=O)(=O)c1cc(C)c(OC)cc1C	4	4
O=C(CNc1cccc2c1CC(O)C2)NCc1ccc(F)cc1 (stereo not given)	3	-5
CN(C)CCNC(=O)CC1CSc2nc3c(cnn3-c3cccc(Cl)c3)c(=O)n21 (stereo not given)	0	-2
CC(=O)OC(C(=O)N1CCc2ccccc2C1c1ccc(C)cc1)c1ccccc1 (stereo not given)	14	2
COC(=O)c1ccc(N2C(=O)CC(N3CCN(c4ccccn4)CC3)C2=O)cc1 (stereo not given)	1	-1
Cc1ccc(S(=O)(=O)NNC(=O)c2c(C)nc3ccccn23)cc1C	-8	-10
c1cc2nc(NCCCN3CCOCC3)ccn2n1	3	1
CS(=O)(=O)Oc1ccc(Cl)cc1CN(Cc1ccco1)C(=O)c1ccccc1Cl	23	20
O=C(NCc1cccc(I)c1)c1cncn1-c1ccc(-c2cc(C(F)(F)F)cc(C(F)(F)F)c2)cc1	6	3
CC(C)c1nc(CNC(=O)c2cn(Cc3ccccc3F)nn2)cs1	8	1
CCO[C@H]1COC[C@@H]1NCC(=O)NCc1ccccc1F	7	5
N#CC1C(=N)Oc2n[nH]c(-c3ccccc3)c2C1c1ccc(F)cc1 (stereo not given)	0	0
Cc1ccc(-c2nn(-c3cccc(F)c3)cc2CNCCN2CCCCC2=O)o1	3	-5
O=C(CSc1nnnn1-c1ccccc1)Nc1ccccc1Cl	-6	-8
O=C(OCC(=O)N1CCCC1)c1c(F)cccc1F	1	7
O=C(NCC(=O)N1CCN(S(=O)(=O)c2ccccc2)CC1)c1ccc2c(c1)OCO2	7	6

Of the compounds above, these contain an aryl methoxy group:
SMILES	NPYLR7 agonist	NPYLR7 agonist max-min
COc1cc(OC)cc(C(=O)N2CCCC2C(=O)Nc2nnc(-c3ccc(Br)cc3)s2)c1 (stereo not given)	-2	-1
COc1ccc(N2CCN(C(=O)c3cc(-c4ccc(C)o4)nn3-c3ccc(F)cc3)CC2)cc1	23	23
COc1cccc2cc(C(=O)Nc3ccccc3OC(F)F)c(=O)oc12	-1	3
COc1cccc(NC(=O)c2cn(C)c3c(=O)n(-c4ccccc4)c(=O)[nH]c23)c1	1	1
COc1ccc(CCNc2cc(C)nn3cnnc23)cc1	-2	19
COc1ccc(CCNC(=O)c2cc(-c3ccccc3)nc3cc(C(C)(C)C)nn23)cc1OC	-6	-2
COc1ccc(O)cc1	0	6
CCc1nc2c(OCC3CCCCC3)cccn2c1N(C=O)Cc1ccc(OC)cc1	-1	-2
COc1ccc(NC2(C(=O)N3CCOC(CN)C3)CCCC2)cc1 (stereo not given)	-2	26
C=C(C)COc1c(CN2CCCCC2c2nc(C)no2)cccc1OC (stereo not given)	-4	-5
COC(=O)c1ccc(=O)n(CC(=O)Nc2ccc(OC)cc2OC)c1	5	6
COc1ccc(Cc2nn[nH]n2)cc1OC	-10	-16
CCOC(=O)c1nn(-c2ccccc2)c(=O)cc1OS(=O)(=O)c1cc(C)c(OC)cc1C	4	4

Screens (PubChem)

This is a subset. The share of hits here may be higher or lower than overall.
